# Assay outcomes (PubChem BioAssay)
# TAR Tat displ: HIV-1 TAR-Tat binding disruption; HIV-1 TAR RNA, Tat peptide displacement FRET; hits give high values; z-score (concentration not given with the values); actives 0.6% (n = 100,000); AID 1259389;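 also: score is relative to mean and SD of negative controls; some compounds called inactive have numbers as strong as hits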
# CDC25B-CDK2 inh: human CDC25B-CDK2/CyclinA binding inhibition; P30305+P24941; HTRF CDC25B-CDK2/CyclinA binding, anti-His/anti-Flag; hits give high values; z-score (test concentration not listed); actives 0.72% (n = 94,000); AID 1259370;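 also: score is relative to mean and SD of negative controls; strong numbers were not always called active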
# Active calls of the source: *; / = not tested or not shown.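 The calls were made as follows: active = z-score from 3 up in half or more of its runs; inactive = the rest.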
# Sequence of screens – TAR Tat displ	CDC25B-CDK2 inh
- CC1(C)C(=O)NN(c2ccc(Cl)cc2)C1=O
  -0.4	-1
- Cn1c(SCC(=O)c2ccc(C(C)(C)C)cc2)nnc1-c1ccncc1
  0.49	-1.6
- O=C(O)c1ccc2c(c1)NC(=O)C(CSCc1cccc(F)c1)N2 (stereo not drawn)
  -1.3	/
- Cc1nc2ccccc2c2c1C(=O)N(c1ccc(Cl)cc1F)C2=O
  -0.93	0.47
- CCOc1ccc(Nc2nc(C)cc(=O)[nH]2)cc1
  1.5	-0.1
- NS(=O)(=O)c1ccc(CNS(=O)(=O)c2cccc3nonc23)cc1
  /	-1.2
- Cc1ccc(Cn2nc3c(cc2=O)CCCC3)cc1
  1.5	/
- COC(=O)c1sc(=S)n(-c2ccc(Cl)cc2)c1C
  1.6	-0.46
- Cc1cc(C#N)c(C)n1-c1ccccc1
  -0.54	-1.4
- COc1cccc(CSC2=NS(=O)(=O)c3ccccc3N2)c1
  2.3	/
- Fc1cccc(Cl)c1CSc1nnc(C2CCNCC2)o1
  1.4	0.16
- Cc1ccc(C)c(CNC(=O)c2cnc3sccn3c2=O)c1
  0.76	/
- CCCc1cc(N2CCN(c3cccc(Cl)c3)CC2)n2cnnc2n1
  1.4	-2
- CCCCc1nc(N2CCCC2)c(C#N)c2c1COC(C)(C)C2
  0.07	0.26
- Cn1c(=O)n(C)c2cc(CNC3CC3)ccc21
  0.97	-0.74
- CCCn1c(C)ccc(-c2noc(CCCC(=O)N3CCOCC3)n2)c1=O
  -0.15	-1.2
- Cc1nc(-c2ccc(S(=O)(=O)Nc3ccc(F)cc3)cc2)co1
  0.07	/
- CCOC(=O)C1CCN(c2c(NCCCN3CCCCCC3)c(=O)c2=O)CC1
  /	-0.2
- CCCN1C(SCc2cc(=O)n3ccccc3n2)=NS(=O)(=O)c2ccccc21
  -2.9	/
- Fc1ccc(Nc2nnc(Cc3cccnc3)c3ccccc23)cc1
  /	-1.1
- CCc1ccc(-c2cc(C)no2)cc1S(=O)(=O)N1CCOc2ccc(C)cc21
  -0.33	/
- COCCCNC(=O)c1c(O)c2c([nH]c1=O)CCCC2
  0.87	/
- NC(=O)C1CCN(C(=O)c2noc3c2COc2ccccc2-3)CC1
  0.65	-0.93
- O=C(O)C1CSC(c2ccc(Cl)cc2)N1 (stereo not drawn)
  1.8	-1.3
- COc1ccc(NC2=NS(=O)(=O)C(c3ccc(F)cc3)=C2C)c(OC)c1
  1.2	/
- O=C(COc1ccc(SC(F)(F)F)cc1)Nn1cccc1
  /	0.92
- COc1cccc(-n2c(N)c(C#N)c3nc4ccccc4nc32)c1
  -2.5	-1.2
- COCCN1C(=O)c2oc3cc(C)c(C)cc3c(=O)c2C1c1ccc(F)cc1 (stereo not drawn)
  1.3	-4.2
- COc1ccccc1OCCOc1ccccc1OC
  0.71	0.02
- CCN(CC)c1ccc(CNc2nc3ccccc3n2C(C)C)cc1
  -0.02	-2.2
- CC1(C)Cc2nc3oc4c(NCCN5CCOCC5)ncnc4c3cc2CO1
  -0.24	/
- CCOC(=O)C1=C(C)NC2=C(C(=O)CC(c3ccc(OC)cc3)C2)C1c1ccc(O)c(OCC)c1 (stereo not drawn)
  2.2	0.01
- O=C(NCCCN=Cc1ccccc1O)c1c(F)cccc1F
  /	-2.2
- CCOc1cc(C2C(C#N)=C(N)Oc3n[nH]c(C(C)(C)C)c32)ccc1O (stereo not drawn)
  1.1	-1.2
- Cc1ccc2oc(-c3ccc(Cl)cc3)c(O)c(=O)c2c1
  -1.8	-0.6
- Cc1cc(NS(=O)(=O)c2ccc3c(c2)NC(=O)CCS3)ccc1Br
  0.07	/
- CCOC(=O)c1cnn(-c2ccccc2)c1NC(=O)C(C)(C)C
  /	1.4
- O=C(Nc1ccc(F)cc1)N1CCC(CN2CCCC2)CC1
  -0.3	/
- O=C(CS(=O)(=O)c1ccc2c(c1)S(=O)(=O)N=CN2)Nc1ccccc1Cl
  -0.58	/
- COC(=O)c1sc2ccccc2c1S(=O)(=O)N1CCN(c2ccccn2)CC1
  -1.2	/
- O=C1CC(=O)Nc2cc(S(=O)(=O)Nc3ccc(-c4ccno4)cc3)ccc2N1
  1.5	/
- Cc1cc(NC(=O)C2CCN(C(=O)OCc3ccccc3)CC2)n(C)n1
  /	-2
- CCOc1ccc(-c2[nH]nc3nc(-c4ccc(Br)cc4)cc(C(=O)O)c23)cc1
  1.3	-0.13
- CCOC(=O)c1nn(-c2ccc(Cl)cc2)c2nc3ccccc3n12
  /	-1.7
- CC1(C)CS(=O)(=O)N(c2ccc(C(=O)NCC3CCCO3)cc2)C1=O (stereo not drawn)
  0.57	0.2
- Cc1cc(NS(=O)(=O)N2CCC(C)CC2)no1
  -0.16	-1.4
- Cn1nnc(NCc2cccc3ccccc23)n1
  0.19	/
- CCCC12CN(C(=O)CC)CC(C)(CN(C(=O)CC)C1)C2=O
  /	-1.3
- Cc1nn(C)c(C)c1CNS(=O)(=O)c1ccc(F)c(Cl)c1
  2.2	/
- CN(C)C(CNC(=O)c1cc(-c2ccc3c(c2)CCCC3)on1)c1ccco1 (stereo not drawn)
  -4.7	-0.56
- CC1=C(C(=O)Nc2cc(C(=O)NCc3ccc(C)cc3)ccc2C)SCCO1
  0.14	/
- COC(=O)c1c(C)oc(C)c1S(=O)(=O)Nc1c(-c2ccccc2)c(C(F)(F)F)nn1C
  /	2.2
- Cc1cc(C)c2c(CC(=O)Nc3sc4c(c3C(=O)NCC3CCCO3)CCCC4)coc2c1 (stereo not drawn)
  1.8	-0.77
- Cc1nn(CC(=O)NCC2CCCO2)c(=O)c2cccn12 (stereo not drawn)
  1.3	-1.5
- Cc1cc(C)cc(OC(C)C(=O)N(Cc2ccc(C)o2)C2CCS(=O)(=O)C2)c1 (stereo not drawn)
  0.81	-2.1
- CC1CCN(S(=O)(=O)c2ccc3[nH]c(=O)c(=O)[nH]c3c2)CC1
  1.1	0.76
- CCN(CC)S(=O)(=O)c1ccc(Nc2nc(SC)nc3c2CCC3)cc1
  2	0.72
- CCOC(=O)C1CCN(c2c(NCCN(C)C)c(=O)c2=O)CC1
  0.31	-0.1
- COc1cc(-c2cc(O)c3c(C)oc(C)c3c(=O)c2)ccc1O
  -3.1	-2.4
- CC1CCC2(CC1)SCC(=O)N2c1ccc(Br)cc1 (stereo not drawn)
  /	-1.5

# Going on with the list.
# Sequence of screens – TAR Tat displ	CDC25B-CDK2 inh
- c1ccc2oc3cc4ccccc4c-3cc2c1
  /	0.27
- Cc1cc(C)c(C)c(Oc2coc3cc(OC(=O)c4ccco4)ccc3c2=O)c1
  0.04	1.3
- Fc1ccccc1CN1CCc2nc(N3CCN(c4ncccn4)CC3)ncc2C1
  -0.31	/
- Cc1nc(-c2nc(-c3ccc(Cl)s3)cs2)cs1
  /	3.4
- CC(C)(C)c1ccc(Oc2ncccc2[N+](=O)[O-])c(Cl)c1
  /	1.1
- CC(=O)N1c2ccc(S(=O)(=O)N3CCCC(C(=O)NC4CCCCC4C)C3)cc2CC1C (stereo not drawn)
  1	/
- COc1ccc(-c2ncnn2-c2cccc(Cl)c2)cc1OC
  1.4	-2.9
- O=C(CCCn1c(=O)c2cccn2c2cccnc21)NCc1cccs1
  -0.14	/
- O=C(C1CCN(S(=O)(=O)c2cnc[nH]2)CC1)N1CCN(c2ccccc2F)CC1
  1.6	-1.1
- CCOC(=O)N1CCN(C(=O)COc2ccc(Br)cc2Cl)CC1
  0.21	-0.09
- COc1ccc(C(=O)Nc2cnc3sc4c(n3c2=O)CCC(C(C)(C)C)C4)cc1OC (stereo not drawn)
  -0.11	-1.3
- O=c1[nH]ncc2c3ccccc3n(Cc3ccccc3)c12
  0.16	-0.51
- CCCOC(=O)CSC1=C(C#N)C(c2ccc(CC)cc2)CC(=O)N1 (stereo not drawn)
  -1.1	-1.5
- Cc1nn(-c2ccccc2)c(N2CCOCC2)c1[N+](=O)[O-]
  /	-1.9
- O=c1ccc(-c2ccc(S(=O)(=O)N3CCN(c4cccc(Cl)c4)CC3)o2)n[nH]1
  0.66	/
- Cn1c2cn(-c3cccc(O)c3)c(-c3ccccc3)c2c(=O)n1-c1ccccc1
  -7.8	-0.21
- COc1cc(OC)cc(C(=O)Nc2nc3c(s2)CCc2cc(OC)ccc2-3)c1
  0.07	-0.75
- CCOC(=O)C1CCN(c2nc3ccccc3n3cccc23)CC1
  -0.65	5.3
- COc1ccc(C2CC(=O)C3=C(C2)NC(=O)CC3c2ccc(F)cc2F)cc1 (stereo not drawn)
  1.6	-0.74
- CCOc1ccc(C(=O)OCc2cc(=O)n3c(C)csc3n2)cc1
  0.91	/

# Continued:
Compound,TAR Tat displ,CDC25B-CDK2 inh
Cc1ccnc(NC(=O)CCc2nnc3ccc(N4CCCC4)nn23)c1,-0.01,/
CCOC(=O)c1oc2cc(O)c(CC)cc2c(=O)c1-c1ccc2c(c1)OCCO2,0.2,-1.7
Cc1cc(C)cc(NC(=O)N2CCN(C)c3ncccc32)c1,-2.1,-1.8
COc1ccc(CN2C(=O)CN(C3CCCCCC3)C(=O)C2c2ccc(OC)cc2)cc1 (stereo not drawn),/,-1.9
O=C1c2ccccc2C(=O)N1CCCc1nc2ccccc2c(=O)n1Cc1ccccc1,/,-4.5
Cc1ccc(C)n1-c1ccc(OC(F)(F)F)cc1,/,-1.6
N#CCc1c([N+](=O)[O-])ccc2c1ccn2Cc1ccccc1,/,-1.1
Cc1cc(C)n(/N=c2\sc(-c3ccccc3)cn2C2CC3C=CC2C3)c(=O)c1C#N (stereo not drawn),/,-2.4
COc1ccc(C2=C(C(C)=O)C(C)=NC(=S)C2C#N)cc1 (stereo not drawn),/,-0.62
CCCCC(CC)C1OCC(CN2CCCCC2)O1 (stereo not drawn),/,-1.1
Cc1ccc(C(=O)CSc2nc3c(c(=O)[nH]2)CCC3)cc1,0.52,-1.9
Cn1cc(NC(=O)N2CCN(Cc3ccc4c(c3)OCO4)CC2)c2ccccc2c1=O,2,/
Cc1ccc(-c2nc(C#N)c(NCc3ccccc3)o2)cc1,1.3,0.9
CCC(C)(C)C1CCC(=O)C(C2(O)C(=O)Nc3ccccc32)C1 (stereo not drawn),/,-1.4
COc1ccc(CN2CCN(CC3CC4C=CC3C4)CC2)cc1OC (stereo not drawn),0.82,1.9
COc1ccc(-c2cc3nccc(-c4cc(F)ccc4O)n3n2)cc1,0.75,-0.56

# Profiles from above. Values in the order: TAR Tat displ, CDC25B-CDK2 inh
# COc1ccc(CN2CCN(CC3CC4C=CC3C4)CC2)cc1OC (stereo not drawn) reads 0.82, 1.9
# COc1ccc(C2=C(C(C)=O)C(C)=NC(=S)C2C#N)cc1 (stereo not drawn) reads /, -0.62
# Cc1ccc(C(=O)CSc2nc3c(c(=O)[nH]2)CCC3)cc1 reads 0.52, -1.9
# Cn1cc(NC(=O)N2CCN(Cc3ccc4c(c3)OCO4)CC2)c2ccccc2c1=O reads 2, /
# CCC(C)(C)C1CCC(=O)C(C2(O)C(=O)Nc3ccccc32)C1 (stereo not drawn) reads /, -1.4

# Remaining list, next part.
Compound,TAR Tat displ,CDC25B-CDK2 inh
O=C(C1CCN(S(=O)(=O)N2CCCC2)CC1)N1CCNc2ccccc2C1,-0.85,-3.4
O=C(NCCN1CCOCC1)NC1(C(F)(F)F)Oc2ccccc2O1,/,-0.76
O=C(NCc1ccccn1)c1cc2c(s1)-c1ccccc1OC2,1.4,-0.37
C=CCOc1cccc(C2c3c(oc4ccccc4c3=O)C(=O)N2c2nnc(C(C)C)s2)c1 (stereo not drawn),3.9,-0.36
c1ccc(-c2nc(NCCCN3CCOCC3)c3ccccc3n2)cc1,-1.8,0.6
COc1ccc(NCc2nnc3n2CCCCC3)cc1OC,0.85,/
CCOC(=O)C/C(=N/Nc1ccsc1C(=O)OC)C(F)(F)F,/,-1.8
Cc1cc(S(=O)(=O)[C@H]2CS(=O)(=O)C[C@@H]2NC2CCCCC2)ccc1F,1.6,-1.2
CCOc1ccc(NS(=O)(=O)c2cc3[nH]c4c(c3cc2C)C(=O)CC(C)(C)C4)cc1,1.7,/
C/C(=N\Nc1nc2c(c(=O)n(C)c(=O)n2C)n1Cc1ccccc1)c1ccc(Cl)cc1,/,-0.59
O=S(CCc1ccncc1)Cc1ccccc1 (stereo not drawn),1.3,-2.2
CCCn1nc(-n2cnnc2)c(NC(=O)Cc2cccs2)c1C,1,0.06
Cc1cc(OCc2nc(-c3ccccc3)no2)ccc1Br,/,-1.6
O=c1c(O)c(NCc2ccco2)c1=O,-0.49,/
Cc1ccccc1-c1noc(-c2sc3nc[nH]c(=O)c3c2C)n1,-1.8,-3.3
CC1CCC(C(=O)NC(Cc2c[nH]c3ccccc23)C(=O)Nc2ccc3c(c2)OCCO3)CC1 (stereo not drawn),0.85,1.5

# 4 entries already listed, arranged by molar mass, high to low.
Compound,TAR Tat displ,CDC25B-CDK2 inh
C/C(=N\Nc1nc2c(c(=O)n(C)c(=O)n2C)n1Cc1ccccc1)c1ccc(Cl)cc1,/,-0.59
CCCn1nc(-n2cnnc2)c(NC(=O)Cc2cccs2)c1C,1,0.06
O=S(CCc1ccncc1)Cc1ccccc1 (stereo not drawn),1.3,-2.2
O=c1c(O)c(NCc2ccco2)c1=O,-0.49,/

# Next section:
Compound,TAR Tat displ,CDC25B-CDK2 inh
C=CCOc1ccc(C2C(C(=O)c3cccs3)=C(O)C(=O)N2Cc2cccnc2)cc1 (stereo not drawn),-0.32,-0.48
C=C1CCC(=O)C(C)CCC2C1CC2(C)C (stereo not drawn),2,/
CCCCSc1nc2n(n1)C(c1ccc(F)cc1)C1=C(CCCC1=O)N2 (stereo not drawn),0.25,-1
Cc1cc2nc(COc3cccc(C)c3C)cc(=O)n2o1,0.82,-0.81
COc1ccccc1N1CCN(C2CCCCC2NS(=O)(=O)c2ccc(Cl)cc2)CC1 (stereo not drawn),3.2,-0.63
COc1cc(N2CCCC2)c([N+](=O)[O-])cc1[N+](=O)[O-],/,-1.9
CCCCc1c(O)nc(SCCN2CCOCC2)n(-c2ccccc2)c1=O,2.3,0.13
